PV pol inh – poliovirus RNA polymerase inhibition | poliovirus polymerase elongation, fluorescence polarization; active compounds read low | % elongation, % (compound at 16.7 µg/mL) | hit rate 0.66% among 150,000 | AID 588519; in the data active = % elongation below about 90%; note: some results filed as inactive read as strong as hits
Target sequence (P03300 1749-2209 limits assumed): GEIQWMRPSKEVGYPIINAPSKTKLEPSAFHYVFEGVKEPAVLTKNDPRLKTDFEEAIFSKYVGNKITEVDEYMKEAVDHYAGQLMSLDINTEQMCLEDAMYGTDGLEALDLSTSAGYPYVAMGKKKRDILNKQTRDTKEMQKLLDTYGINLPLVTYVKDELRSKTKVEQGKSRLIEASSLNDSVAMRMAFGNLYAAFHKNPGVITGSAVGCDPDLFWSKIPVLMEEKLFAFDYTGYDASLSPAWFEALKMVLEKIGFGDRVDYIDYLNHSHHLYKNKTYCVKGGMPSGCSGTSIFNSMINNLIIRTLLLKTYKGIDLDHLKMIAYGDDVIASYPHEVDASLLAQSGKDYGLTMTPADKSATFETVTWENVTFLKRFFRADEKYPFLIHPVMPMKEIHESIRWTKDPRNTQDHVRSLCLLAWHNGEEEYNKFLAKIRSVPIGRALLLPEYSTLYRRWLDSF
PV pol inh intensity – further read-out of PV pol inh, marked with its call; % elongation; measured here: total intensity read-out; formula for this scale not given here;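 total fluorescence in place of polarization; lower means less elongation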
* hit, by the source's call. The list is partial; count on the stated rates, not on these rows.

Order of results – PV pol inh	PV pol inh intensity
CCC(=O)N1CCc2cc(Br)cc(S(=O)(=O)N3CCN(c4ccccc4OC)CC3)c21
  108	109
CCCCNC(=O)CCn1c(=O)c2cccn2c2cccnc21
  111	101
CCCn1c2ccccc2c2cnn(CC(=O)Nc3cc(OC)c(OC)c(OC)c3)c(=O)c21
  100	97
COc1ccc(Cn2ccnc2SCC(=O)Nc2ccc(C)cc2C)cc1
  110	113
Cc1cccc(NC(=O)c2cc3c(=O)n4cccc(C)c4nc3s2)c1C
  102	103
CCOc1ccc(-c2nonc2NC(=O)c2oc3cc(C)ccc3c2C)cc1OCC
  103	96
CC(=O)N1CCc2c(sc3c2c(=O)n(-c2cccc(Cl)c2C)c(=O)n3Cc2ccccc2C)C1
  97	101
CCCc1nnc(NC(=O)c2cc(=O)c3cc(Cl)ccc3o2)s1
  88	83
CSc1ncc(C(=O)Nc2cccc(Cl)c2C)c(-c2ccccc2)n1
  108	100
NC(=O)CSc1nnnn1-c1cccc(O)c1
  106	110

Filtered by structure, the entries above containing four or more nitrogen atoms
Order of results – PV pol inh	PV pol inh intensity
CCCCNC(=O)CCn1c(=O)c2cccn2c2cccnc21
  111	101
CCCn1c2ccccc2c2cnn(CC(=O)Nc3cc(OC)c(OC)c(OC)c3)c(=O)c21
  100	97
NC(=O)CSc1nnnn1-c1cccc(O)c1
  106	110

Further structures follow.
Order of results – PV pol inh	PV pol inh intensity
Cc1sc2ncn(CC(=O)N3CCN(c4ccccc4F)CC3)c(=O)c2c1S(=O)(=O)N1CCN(c2ncccn2)CC1
  106	110
CC1CCN(S(=O)(=O)c2ccc3c(c2)N(CC(=O)N2CCN(c4ccccc4)CC2)C(=O)CO3)CC1
  99	100
COc1ccc(-c2ccc3c(N)c(C(=O)Nc4ccc(C)cc4C)sc3n2)cc1OC
  103	102
CC(C)CCNC(=O)CN1C(=O)c2cccnc2Sc2ccccc21
  105	109
COc1ccc(-c2nn(C)c3sc(C(=O)N4CCN(c5cc(Cl)ccc5C)CC4)cc23)cc1OC
  109	110
Cc1ccc2oc3c(c(=O)c2c1)C(c1ccc(OCC(N)=O)cc1)N(Cc1ccc2c(c1)OCO2)C3=O (centres undefined)
  100	103
CCN(C(=O)Cn1ncc2c1-c1cc(C)ccc1OC2)c1cc(Cl)ccc1OC
  101	105
CCn1ccc2c(OCC(=O)NCc3ccc(C)cc3)cccc2c1=O
  107	112
Cc1cccc(C(=O)Nc2nnc(SCc3cc(=O)n4cccc(C)c4n3)s2)c1
  106	108
Cc1cccc(N2CCN(C(=O)Cc3c(C(=O)O)c(C)cn3C)CC2C)c1 (centres undefined)
  105	111
Cc1nn(C(C)(C)C)c(OC(=O)c2c(F)cccc2F)c1Sc1ccccc1
  105	101
N#Cc1cc([N+](=O)[O-])ccc1NC(=O)c1cccn(Cc2cccc(F)c2)c1=O
  98	99
CCn1cc(CNC(=O)c2cc(-c3ccc(C)c(C)c3)nc3ccccc23)c(C)n1
  105	108
CCn1c(C(=O)NCc2ccc(OC(C)C)cc2)cc2oc3ccccc3c21
  108	108
COc1cccc(-c2noc(CCCC(=O)NCc3ccco3)n2)c1
  116	106
COc1ccc(CCNC(=O)CS(=O)Cc2nc(-c3ccc(C)cc3)oc2C)c(OC)c1 (centres undefined)
  105	111
COc1ccccc1-c1cc(NC(=O)COc2ccccc2Cl)n(-c2ccccc2)n1
  107	110
CCc1ccc(C(=O)CC2(O)C(=O)N(Cc3ccc(C)cc3)c3ccccc32)cc1 (centres undefined)
  108	111
CCc1ccc(NC(=O)CSc2nnc(-c3nonc3NC(C)=O)n2-c2ccccc2)cc1
  105	107
Cc1c(Cl)cccc1NS(=O)(=O)c1ccc(NS(=O)(=O)c2ccc3c(c2)OCCO3)cc1
  102	101

Fetched by compound from above:
Order of results – PV pol inh	PV pol inh intensity
COc1ccc(CCNC(=O)CS(=O)Cc2nc(-c3ccc(C)cc3)oc2C)c(OC)c1 (centres undefined)
  105	111
CCc1ccc(NC(=O)CSc2nnc(-c3nonc3NC(C)=O)n2-c2ccccc2)cc1
  105	107
CCn1cc(CNC(=O)c2cc(-c3ccc(C)c(C)c3)nc3ccccc23)c(C)n1
  105	108

Next compounds:
Order of results – PV pol inh	PV pol inh intensity
COc1ccc2c(c1)Cc1sc(NC(=O)c3cccc(Br)c3)nc1-2
  97	103
CCN(CCCNC(=O)Cn1ncc2c([nH]c3ccc(C)cc32)c1=O)c1cccc(C)c1
  111	111
CC1=C(C(=O)Nc2ccccc2)C(c2cccnc2)n2nc(SCc3ccccc3F)nc2N1 (centres undefined)
  105	109
Cn1ccnc1SCC(=O)Nc1cccc(Br)c1
  105	110
COc1ccc(C(=O)N(Cc2ccco2)Cc2ccccc2F)cc1Cl
  112	113
CC(=O)N1CCc2c(sc3c2c(=O)n(-c2ccc(F)cc2)c(=O)n3Cc2cc(C)ccc2C)C1
  105	110
Cc1cccc(OCCn2c(-c3ccc(Cl)cc3)nc3ccccc3c2=O)c1C
  106	109
CCOc1ccc(-n2nc3cc(C)c(NC(=O)CC)cc3n2)cc1
  108	111
O=C(c1ccc2c(c1)N(Cc1cccc(F)c1)C(=O)c1ccccc1S2)N1CCC2(CC1)OCCO2
  105	103
Cc1ccc(-n2c(SCC(N)=O)nc3c([nH]c4ccccc43)c2=O)cc1
  114	112
CC(C)C(=O)Nc1nnc(S(=O)(=O)N2c3ccccc3CC2C)s1 (centres undefined)
  108	106
Cc1ccn2c(Nc3ccc4c(c3)OCCO4)c(-c3ccc(N(C)C)cc3)nc2c1
  106	108
COc1ccc(-c2nc3ccccc3s2)cc1NC(=O)c1ccccc1F
  102	99
COc1ccc(OC)c(NC(=O)CCCOc2cc(=O)n(C)c3ccccc23)c1
  101	102
Cc1cccc(C(=O)Nc2ccc(OCc3cc(=O)n4ccsc4n3)cc2)c1
  108	113
CCC(C(=O)Nc1cccc(-c2cn3cccnc3n2)c1)c1ccccc1 (centres undefined)
  113	115
CCOC(=O)c1cccc(NC(=O)Cn2c(=O)nc(-c3ccccc3F)c3cc(Cl)ccc32)c1
  106	105
Cc1cccc(NC(=O)CSc2nc3c(oc4ccccc43)c(=O)n2Cc2ccco2)c1
  101	105
CCC(C(=O)NC1CCCCC1)n1c(SCc2ccc(F)cc2)nc2ccncc21 (centres undefined)
  106	110
O=S(=O)(NCCc1csc2nc(-c3ccccc3)nn12)c1cc(F)ccc1F
  118	120
CC1=C(C(=O)Nc2ccc(C)cc2C)C(c2cccs2)n2nc(SCc3ccc(Cl)cc3)nc2N1 (centres undefined)
  111	114
CCn1cc(C(=O)N2CCN(c3ccc(F)cc3)CC2)c(=O)c2cc(S(=O)(=O)N(C)C3CCCCC3)ccc21
  107	111
Cc1cc(C)nc(NS(=O)(=O)c2ccc(NC(=O)c3ccccc3O)cc2)n1
  108	108
COc1ccc(-n2ncc(C(=O)NCc3cccs3)c2C2CCN(C(=O)OC(C)(C)C)CC2)cc1
  106	114
COc1ccc(NC(=O)CCN2CCN(c3cccc(Cl)c3)CC2)cc1
  105	104
COc1ccc(Cn2ccc3nc(C)c(C(=O)N4CCN(c5ccccc5OC)CC4)cc3c2=O)cc1
  104	103
O=C(CSc1nnc(COc2ccccc2)o1)Nc1cc(C(F)(F)F)ccc1Cl
  109	107
COc1cccc(NC(=O)Cn2nnc(C(=O)NCCc3ccccc3)c2N)c1
  112	97
COc1cc(OC)c(NS(=O)(=O)c2ccc3c(c2)CCCN3C(C)=O)cc1Cl
  106	112
CCOc1ccc2c(c1)[C@@H]1C=CC[C@@H]1[C@H](c1ccccc1Cl)N2
  112	112

Next section; the last 3 above are carried over.
Order of results – PV pol inh	PV pol inh intensity
COc1cccc(NC(=O)Cn2nnc(C(=O)NCCc3ccccc3)c2N)c1
  112	97
COc1cc(OC)c(NS(=O)(=O)c2ccc3c(c2)CCCN3C(C)=O)cc1Cl
  106	112
CCOc1ccc2c(c1)[C@@H]1C=CC[C@@H]1[C@H](c1ccccc1Cl)N2
  112	112
CC(C)C(=O)Nc1ccc2nc(SCC(=O)N3CCOCC3)sc2c1
  111	107
COc1cccc(CNC(=O)Cn2ncn3c(cc4ccccc43)c2=O)c1
  109	116
CC(=O)c1ccc(NC(=O)Cn2c(=O)nc(-c3ccccc3)c3ccccc32)cc1
  107	111
COc1ccc(OC)c(NC(=O)c2c(NCc3ccc(C)o3)sc3c2CCC(C)C3)c1 (centres undefined)
  104	108
COc1ccc(N2CCN(C(=O)c3c(C)oc4ncnc(N5CCCCC5)c34)CC2)cc1
  98	94
COc1cccc(N2CC(NC(=O)COc3ccc4ccccc4c3)CC2=O)c1 (centres undefined)
  110	106
CCN1CCN(CCCNC(=O)CS(=O)(=O)Cc2nc(-c3ccccc3C)oc2C)CC1
  103	102
CCOC(=O)c1c(NC(=O)c2cc3nc(-c4ccc(OC)cc4)cc(C(F)(F)F)n3n2)sc(C)c1C
  105	93
COc1ccc(NC(=O)c2nc3nc(C)cc(C(F)F)n3n2)c(C)c1
  101	105
CCCn1c2ccccc2c2cnn(CC(=O)N(C)c3ccccc3CC)c(=O)c21
  101	103
CCOc1ccccc1NC(=O)CCNS(=O)(=O)c1ccc2c(c1)CCN2C(=O)C1CC1
  102	111
COC(=O)c1c(-c2ccc(Cl)cc2)noc1N1CCN(c2ccc(F)cc2)CC1
  110	112
COc1ccc(CCNC(=O)Cc2c(C)c3cc(OC)c(OC)cc3oc2=O)cc1
  101	102
COc1ccc(NC(=O)Cn2cnc3c(nc4n3CCCCC4)c2=O)c(OC)c1
  103	100
COc1ccc(-c2nnn3c2nc(NCCc2ccc(OC)c(OC)c2)c2ccccc23)cc1
  108	108
COc1ccc(OC)c(NS(=O)(=O)c2cc3c(cc2Cl)N(C(C)=O)CCO3)c1
  109	110
COc1ccc(C(=O)c2cn(Cc3ccccc3OC)c3cc4c(cc3c2=O)OCO4)cc1
  109	112
CCOC(=O)c1[nH]c(C)c(CCC(=O)Nc2ccc(C)cc2Cl)c1C
  107	110
Cc1ccc(-n2nnnc2CNC(=O)C(C)C)cc1C
  121	128
CCC(C)NC(=O)CCC(=O)NNc1nc2ccccc2c2nc(C)nn12 (centres undefined)
  36*	44*
CC1CCN(S(=O)(=O)c2ccc3c(ccc(=O)n3CC(=O)NCc3ccccc3)c2)CC1
  110	108
Cc1ccccc1Cn1c(=O)n(CCc2ccccc2)c(=O)c2c(C)c(C)sc21
  111	113
COc1ccc(-c2nc3c(c(SCC(=O)Nc4ccccc4F)n2)Cc2cc(C)ccc2O3)cc1
  107	112
CNS(=O)(=O)c1cn(CC(=O)Nc2cccc(OC)c2)cc1S(=O)(=O)NC
  101	101
Cc1cc(Cl)ccc1NS(=O)(=O)c1c(C(=O)N2CCCCCC2)c(C)n(C)c1C
  102	112
COC(=O)c1ccc(NC(=O)c2nc(-c3ccc(Cl)cc3)n3c2CCCCC3)cc1
  112	108
O=C(CCCn1c(=O)[nH]c2ccccc2c1=O)NCc1ccccc1Cl
  109	106
CC(C)OCCCNC(=O)Cn1ccc2cc(S(=O)(=O)N3CCCCCC3)ccc21
  105	99
O=C(NCc1cccc(F)c1)C1=Cc2cc(Br)ccc2OC1
  109	113
Cc1cc(C)cc(NC(=O)CSCc2cc(=O)c3ccc(C)c(C)c3[nH]2)c1
  109	106
CN1C(C(=O)Nc2ccc(OC(F)(F)F)cc2)=CC(c2ccc3c(c2)OCO3)=NS1(=O)=O
  107	105
COc1cccc(-c2cc(C(=O)NCc3ccccc3)no2)c1
  104	105
Cc1ccc(NC(=O)CCn2cccn2)cc1Cl
  103	102
CCCc1cc(=O)[nH]c(Nc2cc(C)ccc2OC)n1
  108	111
COc1ccccc1Nc1nn2c(=O)c3ccc(C(=O)NCCCOC(C)C)cc3nc2s1
  110	108
COc1ccc(OC)c(NC(=O)CN(c2ccccc2OC)S(=O)(=O)c2ccc(C)cc2)c1
  106	107
O=C(Nc1ccc(Br)cc1)C(Cc1ccccc1)NS(=O)(=O)c1cccc2nsnc12 (centres undefined)
  107	108
CCC1CCCCN1CCCNC(=O)c1ccc2c(c1)sc1nc(-c3ccc(F)cc3)cn12 (centres undefined)
  100	101
COc1cc(OC)cc(C(=O)Nc2cccc(-c3cn4ccsc4n3)c2)c1
  102	98
Cc1ccc(C)c(CN2C(=O)c3ccccc3S(=O)(=O)c3ccc(C(=O)N4CCCC4)cc32)c1
  100	102
O=C(NCc1ccccc1Cl)c1ccc2c(c1)N(Cc1ccccc1)CCS2
  109	111
COCCCNC(=O)c1ccc2c(c1)N=C(C)c1c(C)ccc(C)c1S2
  106	108
CN(Cc1ccccc1)C(=O)CSc1nnc(-c2cccc(Cl)c2)o1
  110	101
O=S(=O)(NCC(c1ccco1)S(=O)(=O)c1cccs1)c1ccc(Cl)cc1 (centres undefined)
  111	116
COc1cccc(NC(=O)CSC2=Nc3ccccc3N=C(c3ccc(F)cc3)C2)c1
  112	114
COc1ccc(NC(=O)CSC2=Nc3ccccc3C3=NC(CCC(=O)NCCc4ccccc4)C(=O)N23)cc1 (centres undefined)
  105	107
CCOc1ccc(NC(=O)Cc2csc(COc3cccc(C)c3)n2)cc1
  103	110
Cc1ccc(S(=O)(=O)c2nc(-c3cccs3)oc2SC(C)C)cc1
  108	113
CCCCCOc1ccc(Cn2c(=O)oc3ccccc32)cc1
  102	104
CN1C(=O)Cc2cc(S(=O)(=O)CCC(=O)N3CCN(c4ccccc4F)CC3)ccc21
  104	100

Continuation:
Order of results – PV pol inh	PV pol inh intensity
CCc1ccc(S(=O)(=O)c2cn(C)c3cc(N4CCOCC4)c(F)cc3c2=O)cc1
  102	103
COc1ccccc1OCCn1cc(C(=O)c2cccs2)c2ccccc21
  100	100
COCCCNc1ncnc2c1nnn2C
  108	111
O=C(NCc1ccccc1Cl)c1ccc(Cn2c(=O)c3cccn3c3cccnc32)cc1
  103	99

Screens (PubChem)
